Screening results (PubChem)
VDR inhibitor: inhibitors of human vitamin D receptor; P11473; VDR-SRC2-3 peptide fluorescence polarization, 2 h; Potency, µM, for the others: max response, negative = inhibition, hits mostly inhibitors; 400,000 tested, 0.93% active; AID 504847; active = well fitted inhibition curve with a large enough effect; also: series mostly up to about 120 µM
Target sequence (P11473 whole entry, looked up): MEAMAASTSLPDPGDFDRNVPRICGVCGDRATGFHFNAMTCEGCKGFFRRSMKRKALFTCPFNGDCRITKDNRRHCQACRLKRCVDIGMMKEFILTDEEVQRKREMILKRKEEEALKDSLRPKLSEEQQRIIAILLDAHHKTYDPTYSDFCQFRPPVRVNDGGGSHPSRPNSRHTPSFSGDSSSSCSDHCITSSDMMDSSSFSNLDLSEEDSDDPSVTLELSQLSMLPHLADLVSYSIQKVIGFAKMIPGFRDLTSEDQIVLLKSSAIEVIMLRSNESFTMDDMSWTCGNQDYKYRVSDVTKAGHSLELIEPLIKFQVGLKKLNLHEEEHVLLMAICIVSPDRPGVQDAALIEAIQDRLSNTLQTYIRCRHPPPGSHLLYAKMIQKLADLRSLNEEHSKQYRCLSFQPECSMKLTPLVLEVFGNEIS
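After 23 nl compound addition and a short centrifugation, plates sat for 2 hours at ambient temperature; polarization of fluorescence then indicated loss of VDR binding to peptide SRC2-3.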
* hit, by the source's call; & = joins results of further samples. % is scaled to controls: 0 for no effect and ±100 for the full control effect; potency is read from the fitted curve at half-maximal effect.

molecule,VDR inhibitor
CCC(=O)c1cc2c(cc1NC(=O)c1ccccc1F)OCCO2,-3.2%
CCn1c(-c2nn(C)c(C)c2Cl)n[nH]c1=S,11.3%
CN(C)c1ncc2nc(-c3ccccc3)c(=O)n(C3CC3)c2n1,-11.1%
Cc1ccc(Cl)cc1NCc1nnc2n1CCCCC2,7.8%
Nc1ccc(Nc2nc(-c3cccs3)cs2)cc1,3.9%
CSCc1ccc(C(=O)N2CCCC(Nc3ccc(F)cc3)C2)o1 (configuration not stated),12.3%
Cc1ccc(-c2ccc(=O)n(CC(=O)N3CCN(c4cccc(C)c4)C(C)C3)n2)cc1 (configuration not stated),-1.9%
C/C(=N\N=C(N)N)c1ccc(Cl)cc1,-10.0%
CN(CC(=O)NCc1ccc(Cl)cc1)S(=O)(=O)c1ccc2c(c1)c(=O)n(C)c(=O)n2C,9.5%
CCCn1c2ccccc2c2cnn(CC(=O)NC3CCN(Cc4ccccc4)CC3)c(=O)c21,-17.2%
Cc1ccc(-n2nc(C)c3cc(C(=O)O)sc32)cc1,3.9%
O=c1[nH]c2ccccc2c(O)c1Cc1ccccc1,-3.6%
COc1cc(C(C)=O)ccc1OCC(O)CN(CCO)Cc1ccccc1 (configuration not stated),-2.8%
COc1cccc(NC(=O)CN2C(=O)COc3ccc(S(=O)(=O)N4CCOCC4)cc32)c1,-3.8%&5.3%
Cc1noc(/C=C/N(C)C)c1S(=O)(=O)N1CCCC(C(=O)NC(C)c2ccccc2)C1 (configuration not stated),11.1%
Cc1c(NC(=O)CSc2nncn2-c2ccccc2)c(=O)n(-c2ccccc2)n1C,8.7%
C=CCc1cc(/C=N/n2cnnc2)cc(OCC)c1O,6.4%
O=C(O)CC(C(=O)O)c1cn(Cc2ccccc2)c2ccccc12 (configuration not stated),-4.4%
O=C(CN1C(=O)C2CC=CCC2C1=O)NCc1ccc2c(c1)OCO2 (configuration not stated),9.1%
O=C(Nc1ccc(S(=O)(=O)N2CCC(c3nc4ccccc4s3)CC2)cc1)c1ccccc1,15.9%
CC(=O)c1nc(N2C(=O)CC(Cc3cc(C)cc(C)c3)C2=O)sc1C (configuration not stated),-13.7%
Cc1nc(Cl)c(N=Cc2cccc([N+](=O)[O-])c2)c(Cl)n1,0.9%
COc1ccc(NC(=S)N2CCC(NC(=O)c3ccco3)CC2)cc1,12.6%
CC(=O)Nc1ccc(S(=O)(=O)N(Cc2cccnc2)Cc2cc3ccccc3[nH]c2=O)cc1,-13.8%
CCCCN(C(=O)CSc1nnc(-c2ccc(OC)cc2)n1CC)c1c(N)n(Cc2ccccc2)c(=O)[nH]c1=O,-14.8%
CCOc1ccc(NC(=O)C2CC(=O)N(c3ccc(C(C)C)cc3)C2)cc1 (configuration not stated),-13.1%
Cc1ccc(C)c(NC(=O)CN2CCN(C3CCCCC3)C(=O)C2=O)c1,19.7%
CCS(=O)(=O)c1nc(S(=O)(=O)c2ccc(C)cc2)c(NCCCOC)s1,13.6%
CC(C)C(NC(=O)CNC(=O)OC(C)(C)C)C(=O)NCc1ccccc1 (configuration not stated),-11.3%
CC(C)c1ccc(Cn2c(COc3ccccc3)nc3ccccc32)cc1,1.4%
COc1ccc(C(=O)Nc2nnc(-c3ccccc3)s2)cc1,13.7%
CC(c1ccccc1)N1C(=O)C2C3C=CC(C4CC34)C2C1=O (configuration not stated),-11.3%

Some of the entries above in a different format:
| VDR inhibitor | Compound |
| --- | --- |
| 13.6% | CCS(=O)(=O)c1nc(S(=O)(=O)c2ccc(C)cc2)c(NCCCOC)s1 |
| -11.3% | CC(C)C(NC(=O)CNC(=O)OC(C)(C)C)C(=O)NCc1ccccc1 (configuration not stated) |
| 1.4% | CC(C)c1ccc(Cn2c(COc3ccccc3)nc3ccccc32)cc1 |
| 13.7% | COc1ccc(C(=O)Nc2nnc(-c3ccccc3)s2)cc1 |

(more compounds)
molecule,VDR inhibitor
N#CC1=C(N)NC(=S)C(C(N)=O)C1c1ccc([N+](=O)[O-])cc1 (configuration not stated),79.4µM*
COc1ccc(C2/C(=C(\O)c3ccc4c(c3)OCCO4)C(=O)C(=O)N2Cc2ccco2)c(OC)c1 (configuration not stated),6.9%
Cc1cccc(NC(=O)CSCC(=O)N2CCN(C(=O)c3ccco3)CC2)c1,-6.6%
O=C(COC(=O)c1cc(S(=O)(=O)N2CCOCC2)ccc1F)Nc1cc([N+](=O)[O-])ccc1F,-8.3%
CC12CCC(=O)N1C(C(=O)Nc1nc(-c3ccccc3)cs1)CS2 (configuration not stated),-4.0%
CCc1ccc2nc(Nc3ccc(OC)cc3OC)c(C#N)cc2c1,25.3%
CCOc1ccc(Cn2ccnc2)cc1[N+](=O)[O-],-1.8%
C#CCOCCOCCOCCNc1nc(N2CCN(C(=O)[C@H]([C@@H](C)CC)n3cc(CCCCN)nn3)CC2)nc(N2CCN(C(=O)[C@H]([C@@H](C)CC)n3cc(CCCN=C(N)N)nn3)CC2)n1,-13.6%
CN(C)C(=O)Nc1ccccc1CC[N+](=O)[O-],2.0%
COCc1[nH][nH]c(=O)c1C=Nc1ccc(C(F)(F)F)cc1,-6.5%
COCCN=c1scc(-c2ccco2)n1/N=C/c1ccc(O)c(O)c1O,-6.4%
O=C(Nc1ccccc1Cl)N1CCN(c2ccc3nnc(-c4ccc(F)cc4)n3n2)CC1,-6.5%
CC(C)(C)c1nnc(SCC(=O)Nc2ccc(N3CCCCC3)cc2)n1N,-3.4%
Cc1ccc(C(=O)NCCNC(=O)c2cnccn2)cc1,23.5%
CCN(CC)S(=O)(=O)c1ccc(C(=O)N2CCN=C2SC)cc1,6.1%
CC1CCCN(c2c(S(=O)(=O)c3ccccc3)cnc3ccc(Cl)cc23)C1 (configuration not stated),3.8%
Cn1cc(S(=O)(=O)NC2CCCCCC2)c(=O)n(C)c1=O,-14.9%
CCN(CC)S(=O)(=O)c1ccc(C(=O)NNc2nc(-c3ccccc3)c3cc(Br)ccc3n2)cc1,-16.5%
COc1ccc(C(=O)NC(=S)NNC(=O)c2ccc(NC(C)=O)cc2)cc1Br,7.5%
CC1CCCC(C)N1NC(=O)Cc1ccccc1 (configuration not stated),0.3%
CC(NC(=O)c1cccs1)c1ccc2c(c1)OCO2 (configuration not stated),11.7%
CCOc1ccc(S(=O)(=O)N(CC(=O)Nc2ccc3c(c2)OCO3)c2ccccc2)cc1,-8.9%
C/C(=N\Nc1nnc2c3ccccc3n(C)c2n1)c1ccc(C)o1,-18.1%
COc1cc2c(c(OC)c1)C(c1cccc(F)c1F)CC(=O)N2 (configuration not stated),-9.6%
COc1ccc(NS(=O)(=O)c2ccc(NS(=O)(=O)c3cccs3)cc2)cc1,5.0%
O=C(CSc1nnc(Cc2ccccc2)o1)c1cc(F)ccc1F,-15.5%
Cc1ccc(N2C(=O)c3ccccc3C2C(=O)c2cc(C)ccc2O)cc1 (configuration not stated),8.9%
O=C(N=C1SCC(=O)N1c1ccccc1Cl)c1ccccc1,20.7%
COc1cc(C(=O)NC2CCCCC2)ccc1OC1CCN(C(C)=O)CC1,-4.9%
CCC(=O)Nc1cc(C(=O)NCC2CCCN2CC)c(OC)cc1N(C)C (configuration not stated),-14.4%
Cc1ccc(C2(C)NC(=O)N(CC(=O)Nc3cc(C)on3)C2=O)cc1 (configuration not stated),6.7%
Oc1ccccc1-c1nc(/C=C/c2ccccc2Cl)nn1-c1ccccc1,7.5%
Cc1ccc(/C=C/C(=O)NCCc2c[nH]c3ccccc23)o1,-2.5%
CC(C)NC(=O)COC(=O)CNC(=O)C1CCCCC1,-7.6%
O=C(COc1ccc(Cl)cc1Cl)NCCSc1ccc(Cl)cc1,-13.2%
COc1ccc(NC(=O)OCC(C)C)cc1OC,-1.4%
CCOC(=O)c1c(C)[nH]c(C)c1S(=O)(=O)N1CCCC(C(=O)N2CCN(c3cc(C)ccc3C)CC2)C1 (configuration not stated),-2.2%
Cc1cccc(NC(=O)CSc2ccc(-c3cccnc3)nn2)c1,-0.7%
CCC(=O)N1CCN(c2ccc(NC(=O)c3ccc([N+](=O)[O-])o3)cc2Cl)CC1,10.7%
O=S(=O)(NCC(c1ccco1)S(=O)(=O)c1ccccc1)c1ccccc1 (configuration not stated),3.8%
O=c1c2ccccc2c(C=Nc2ccc(Cl)cn2)c(O)n1-c1cc(Cl)ccc1N1CCOCC1,-5.4%
Nc1ccc(C(=O)N/N=C/c2cn(Cc3ccc(F)cc3)c3ccccc23)cc1,-5.1%
NS(=O)(=O)c1ccc(CCNC(=O)CNC(=O)Cc2ccccc2)cc1,10.4%
O=C(c1ccccc1)c1ccc(OCC(O)CNCc2ccc(F)cc2)cc1 (configuration not stated),-3.8%
CC1SCC(NC(=O)c2ccc(Cl)cc2)CS1 (configuration not stated),-6.7%
CCOC(=O)c1ccc(NC(=O)CSc2c(C(C)C)cnc3c2c(=O)n(C)c(=O)n3C)cc1,6.3%
COc1ccc(CN2C(=O)CSCC2=O)cc1OC,-5.8%
COc1ccc(Cl)cc1C(=O)Nc1ccncc1,-12.4%
COC(=O)C1=C(C)Nc2ncnn2C1c1cccnc1 (configuration not stated),7.3%
O=S(=O)(Nc1ccccn1)c1cccc(S(=O)(=O)c2ccc(Br)cc2)c1,7.2%
O=C(COc1ccccc1)Nn1c(-c2ccccc2)nc2ccccc2c1=O,-3.1%
COc1ccc(C2CC(c3ccccc3)=NN2C(=O)COC(=O)c2cc(S(=O)(=O)N3CCOCC3)ccc2F)cc1 (configuration not stated),-15.2%
CC(C)(C)c1ccc(OCC(O)CN(CCO)CC(O)Cn2ccc3ccccc32)cc1 (configuration not stated),4.6%
Cc1ccc(NC(=O)c2ccco2)cc1NC(=O)CSc1nnc(-c2cccs2)n1C,-12.3%
Cc1ccc(CNS(=O)(=O)c2ccc3c(c2)OCCO3)cc1,-1.7%
CCn1c(=O)c([N+](=O)[O-])c(NCCCn2ccnc2)c2ccccc21,-8.1%

More compounds
molecule,VDR inhibitor
O=C(COC(=O)c1c[nH]c2ccccc12)NC1CCCCC1,-14.2%
O=C(CN(Cc1ccccc1)S(=O)(=O)c1ccc(Br)cc1)NCC1CCCO1 (configuration not stated),-17.7%
Cc1ccc(C)c(S(=O)(=O)c2nnn3c2nc(Nc2ccc(C)c(C)c2)c2ccccc23)c1,0.2%
CC(=O)Nc1ccc(S(=O)(=O)N(C)CC(=O)OCC(=O)c2ccc3c(c2)NC(=O)CO3)cc1,-19.0%
O=C(NCc1ccccc1Br)c1ccc2c(c1)nc1n2CCOC1,5.0%
COc1cccc(CNS(=O)(=O)c2ccc3c(c2)C(C)(C)C(=O)N3C)c1,0.2%
O=C(COC(=O)c1cccc(Cl)c1)NCc1ccccc1,-7.8%
O=C(Nc1cccc(C(=O)O)c1)Nc1ccccc1Cl,3.6%
CCOc1ccc(S(=O)(=O)Nc2cc(C)ccn2)c2ccccc12,7.0%
O=C(/C=C/N1CCOCC1)c1coc2ccccc12,-0.8%
CC(C)c1nc2ccc(C(=O)NCc3ccc(N(C)C)cc3)cc2o1,11.8%
CCOP(=O)(OCC)c1nc(-c2ccccc2)oc1N1CCCCC1,-13.7%
O=C(Nc1ccc([N+](=O)[O-])cc1)C(Cc1ccccc1)N1C(=O)c2cccc3cccc(c23)C1=O (configuration not stated),1.0%
C=CCOc1ccc(-c2n[nH]c(=S)o2)cc1,-17.9%
CC(C)COC(=O)Cc1c(O)c2ccccc2[nH]c1=O,1.5%
COc1cc(S(=O)(=O)NCCc2c(C)[nH]c3ccc(C)cc23)ccc1Br,9.6%
Cc1ccccc1OCCOc1cccc(/C=N/NC(=O)Cc2nnc(N)s2)c1,8.8%
Cc1ccc(Cn2cc(S(=O)(=O)c3ccc(C(C)C)cc3)c(=O)c3cc4c(cc32)OCO4)cc1,-14.5%
COc1cccc(N2CCN(c3ccc4nnc(CCC(=O)Nc5ncccc5C)n4n3)CC2)c1,-12.9%
CN1CCN(C(=O)/C(=C\c2ccccc2)c2ccccc2)CC1,-14.8%
NCCCC[C@H]1CN=C(N)N1CCCCC1CCCCC1,-9.5%
NNc1nc(NCc2ccccc2)nc(N2CCOCC2)n1,9.7%
Clc1cc(Br)ccc1OCCCn1ccnc1,-14.9%
NC(=O)CCN1CCN(Cc2nc(C(c3ccccc3)c3ccccc3)no2)CC1,-9.5%
CCCNNC(=O)C(O)(c1ccccc1)c1ccccc1,1.6%
Cc1ccc(-c2nc3ccccc3s2)cc1NC(=S)NC(=O)c1ccccc1,3.5%
CCOc1ccc(-n2c(-c3ccccc3)c[n+]3c2CCC3)cc1,-4.6%
Cc1cc(C)cc(NC(=O)COC(=O)CN=C2NS(=O)(=O)c3ccccc32)c1,-17.8%
CCc1nnc(NC(=O)CSc2nnc(Cc3ccc(OC)cc3)o2)s1,-21.9%
CCNC(=S)N(Cc1ccco1)Cc1cc2cc3c(cc2[nH]c1=O)OCCO3,-1.7%
O=C(Nc1nccs1)c1ccc2c(=O)n3c(nc2c1)CCCCC3,-5.1%
C[C@]12CC[C@@H]3c4ccc(O)cc4C(=O)C[C@H]3[C@@H]1CC[C@@H]2O,12.7%
Cn1c(SCC(=O)N2CCOCC2)nnc1-c1cccc(NC(=O)c2ccccc2)c1,-3.4%
O=C(Nc1ccccc1Cl)c1ccc(F)c(S(=O)(=O)NCc2ccc(Cl)c(Cl)c2)c1,14.2%
CNC(=O)c1[nH]cnc1C(=O)Nc1cccc(C)c1,7.6%
O=C(Nc1ccc(F)cc1)C(NC1CCCCC1)c1ccccc1 (configuration not stated),0.0%
CCn1c(SCC(=O)N/N=C/c2ccc(C)s2)nc2ccccc21,-4.2%

Some of the compounds tested (hit frequency here may not be typical).
